GIV Gai3 FP = inhibitors of GIV peptide binding to Galpha-i3, primary screen, biochemical, fluorescence polarization, FITC-GIV GBA peptide, rat Galphai3; Guanine nucleotide-binding protein G(i) subunit alpha-3 (Rattus norvegicus), P08753; percent of control (FP), % (no concentration beside the values); 90 min; hits give low values; scaled: aluminum fluoride 0%, vehicle 100%; 210,000 compounds, 0.42% hits;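 active = replicate mean at 85% of control or lower, very high polarization wells dropped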;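 also: wells of about 15 µL received 100 nL stock; the first replicate is given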
Target sequence (P08753 whole entry, looked up): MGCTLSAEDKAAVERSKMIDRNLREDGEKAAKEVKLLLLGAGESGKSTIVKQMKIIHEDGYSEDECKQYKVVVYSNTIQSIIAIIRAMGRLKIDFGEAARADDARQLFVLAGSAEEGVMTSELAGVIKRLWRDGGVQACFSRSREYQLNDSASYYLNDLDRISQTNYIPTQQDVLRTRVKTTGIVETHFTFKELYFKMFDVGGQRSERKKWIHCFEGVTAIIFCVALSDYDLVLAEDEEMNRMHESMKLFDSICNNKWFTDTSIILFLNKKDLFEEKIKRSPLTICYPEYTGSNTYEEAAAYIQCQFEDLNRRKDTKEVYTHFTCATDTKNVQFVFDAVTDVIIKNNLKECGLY
* = called active by the depositor. These rows are one share of the data, so the mix of outcomes need not match the whole.

SMILES	GIV Gai3 FP
COc1ccc2cc1Oc1ccc(cc1)CC1c3cc(c(OC)cc3CCN1C)Oc1c(OC)c(OC)c(OC)c3c1C(C2)N(C)CC3 (centres undefined)	114
O=P1(C(Nc2ccc(Br)cc2)c2ccc(O)cc2)OCCCO1 (centres undefined)	107
O=C(NC1CCCC1)c1cc2cn(C3CCCC3)cc2s1	121
COc1cc(C2C3=C(Nc4c2c(=O)n(C)c(=O)n4C)c2ccccc2C3=O)ccc1O (centres undefined)	101
CCOc1ccc(NC(=O)N2CCCC(C)(C(=O)NCc3ccccc3C)C2)cc1 (centres undefined)	115
C=CCOc1cccc(C2Nc3ccc(C)cc3[C@H]3OCCC[C@@H]23)c1 (some centres undefined)	103
COc1ccc(CNS(=O)(=O)c2cc(C(=O)Nc3ccc(Oc4ccccc4)cc3)ccc2F)cc1	111
Cc1ccc(-c2ccc(Nc3ccc(S(N)(=O)=O)cc3)nn2)cc1S(=O)(=O)N1CCOCC1	105
Cc1cc(C)c(S(=O)(=O)Nc2ccc3oc4c(c3c2)C(=O)CC(C)(C)C4)c(C)c1	116
CCO/C=C1\c2cc([N+](=O)[O-])ccc2-c2c1cc([N+](=O)[O-])cc2[N+](=O)[O-]	99
CCc1onc(C)c1C1CCCN1Cc1ccc(Cl)cc1 (centres undefined)	110
Cc1cc(N2CCOCC2)nc(N2CCN(S(C)(=O)=O)CC2)n1	101
COc1cccc(NC(=O)CSc2nc3ccccc3c(=O)n2CCCC(=O)NCCc2ccc(OC)c(OC)c2)c1	109
Cc1ccc(NS(=O)(=O)c2cc3c(c([N+](=O)[O-])c2)-c2c(cc(S(=O)(=O)Nc4ccc(C)cc4)cc2[N+](=O)[O-])C3=O)cc1	117
CCN(CC)CCCNS(=O)(=O)c1cc(C(=O)Nc2cc(C(F)(F)F)ccc2Cl)ccc1F	111
CCC(=O)Nc1cccc(-c2noc(C3CCCN(C(=O)c4ccc(C)c(F)c4)C3)n2)c1 (centres undefined)	104
Cc1cccc(S(=O)(=O)Nc2ccccc2-c2ccc3cc(C)ccc3n2)c1	103
Cc1csc(-c2cc(S(=O)(=O)NCC3CC3)cn2CC(=O)N2CCOCC2)n1	104
CNC(=O)C1=C(C)OCCS1	103
COc1ccc(N2C(SC)=NC(=Nc3cccc(C)c3)C23CCCCC3)cc1	117

Pulled by structure from the entries so far (4):
SMILES	GIV Gai3 FP
CCN(CC)CCCNS(=O)(=O)c1cc(C(=O)Nc2cc(C(F)(F)F)ccc2Cl)ccc1F	111
CNC(=O)C1=C(C)OCCS1	103
Cc1ccc(NS(=O)(=O)c2cc3c(c([N+](=O)[O-])c2)-c2c(cc(S(=O)(=O)Nc4ccc(C)cc4)cc2[N+](=O)[O-])C3=O)cc1	117
COc1cccc(NC(=O)CSc2nc3ccccc3c(=O)n2CCCC(=O)NCCc2ccc(OC)c(OC)c2)c1	109

(listing goes on)
SMILES	GIV Gai3 FP
Cc1ccc(-c2noc(C3CC3)n2)cc1-n1cc(C(=O)NC2CCCCC2)c(C)n1	102
O=C(Nc1ccc(N2CCC(c3ccccc3)C2)c(C(=O)O)c1)c1ccccc1 (centres undefined)	107
Cc1ccc(CNS(=O)(=O)c2cc(-c3nc(C(C)C)cs3)cs2)cc1	98
CC1(C)Cc2c(sc3c2c(=O)n(-c2ccccc2)c2nncn32)CO1	110
COc1ccc(C2/C(=C(\O)c3ccc(Cl)cc3)C(=O)C(=O)N2CCCN(C)C)c(OC)c1 (centres undefined)	112
CCOC(=O)c1cc2c(nc1C)-c1ccccc1C2=O	105
O=C1COc2ccc(S(=O)(=O)N3CCc4ccccc43)cc2N1Cc1noc(C2CC2)n1	102
Cc1ccc(S(=O)(=O)N2CCOc3ccc(COCc4ccc(F)cc4)cc3C2)c(C)c1	98
COc1ccccc1-n1c(=S)sc2c(=O)n(Cc3ccco3)c(SCC#N)nc21	100
CCOC(=O)C1CCN(c2ncc(C(=O)OC)c3ccccc23)CC1	106
Cc1nn(C)cc1CN(C)c1nc(C2CC2)nc2c1CCC2	100
Cc1ccsc1/C=N/NC(=O)c1nnn(-c2nonc2N)c1-c1ccccc1	98
CC(C)Cn1c(=O)c2sccc2n2c(=O)n(CC(=O)NC(C)C)nc12	96
Cc1nn(CC(=O)NC(C)(C)C)c(C)c1S(=O)(=O)N1CCCC(C(=O)N2CCN(C)CC2)C1 (centres undefined)	104
Cc1ccccc1NC(=O)CSc1nc(N)c(C#N)c(-c2cccs2)c1C#N	106
Cc1ccc(-n2c(N)c(C(=O)NCC3CCCO3)sc2=S)cc1 (centres undefined)	100
COc1cc(C2C3=C(CC(C)(C)CC3=O)OC3=C2C(=O)CC(C)(C)C3)ccc1OCc1cc2c(cc1Cl)OCO2	113
C=CCn1c(=O)c(N2CCC(NC(=O)NC3CCCC3)CC2)nc2cccnc21	97
Cc1ccc(Cc2nnc(-c3ccc(NC(=O)Nc4ccc(C)c(C)c4)cc3)o2)cc1	102
Cc1nn(-c2ccc(F)cc2)c2sc(C(=O)Nc3ccc(F)cc3)cc12	104
Oc1ccc(Br)cc1-c1nc(Cl)c2ccccc2n1	105
CCOc1ccc(-c2nn(-c3ccccc3)cc2C2C(C(=O)OCCOC)=C(C)NC(C)=C2C(=O)OCCOC)cc1	110
O=C(Nc1ccccc1)N1CCN(Cc2nc3cccnc3n2-c2cccc(F)c2)CC1	110
Cn1nc(C(=O)N2CCCC(C(=O)NC3CC3)C2)c2c1CCN(C(=O)C(C)(C)C)C2 (centres undefined)	103
Cc1cc(N)nn1C(=O)CSc1nc2c(sc(=S)n2Cc2ccco2)c(=O)n1-c1ccc(F)cc1	116
COC(=O)C1=C(C(=O)OC)SC2(S1)C(C(=O)OC)=C(C(=O)OC)SC1=C2c2cc(C)ccc2N(C(=O)c2ccccc2)C1(C)C	107
COc1cc(OC)c(NC(=O)c2sc3ncnc(N4CCOCC4)c3c2C)cc1Cl	104
CC12c3ccccc3C(C=O)(c3ccccc31)C1C(=O)N(c3ccccc3Br)C(=O)C12 (centres undefined)	112
CCOC(=O)c1ccc(NC(=O)CSc2cc(N3CCCC3)ncn2)cc1	110
CCOc1ccccc1C1C(C#N)=C(N)Oc2n[nH]c(-c3ccc(OC)c(OC)c3)c21 (centres undefined)	105
COc1cc(/C=C\C(=O)Nc2c3c(nn2-c2cccc(C)c2C)CS(=O)(=O)C3)cc(OC)c1OC	105
O=C(Nc1ccc(Oc2ccc(Br)c3ccccc23)c(Cl)c1)c1cc(Cl)cc(Cl)c1O	107
CCOc1ccccc1C1C(C#N)=C(SCC(=O)Nc2ccccc2CC)NC2=C1C(=O)CCC2 (centres undefined)	109
COCCOC(=O)C1=C(C)N=c2s/c(=C3\C(=O)N(C)c4ccccc43)c(=O)n2C1c1ccc(OC(=O)c2ccco2)cc1 (centres undefined)	106
CCCCN(C)Cc1c(O)ccc2c3c(c(=O)oc12)CCC3	104
FC(F)(F)c1ccc(-c2nnc3ccc4ccccc4n23)cc1	103
Cc1ccc(CNC(=O)N2CCC(N3CCN(Cc4ccc(F)cc4)C(=O)C3=O)CC2)cc1	101
Cc1ccc(-c2ccc(-n3nc(C)c(S(=O)(=O)NCCN4CCOCC4)c3C)nn2)cc1C	107
CC(=O)NC1(NC(C)=O)CCN(C)CC1	109
Cc1cc(=O)oc2c3c(ccc12)OCN(c1ccc(Cl)c(Cl)c1)C3	108
O=C1C(=O)N(c2cccc(C(F)(F)F)c2)C(c2ccc(Cl)cc2)/C1=C(\O)c1ccc(Br)cc1 (centres undefined)	109
O=C(COc1ccccc1)NCc1nnc(SCC(=O)N2CCc3ccccc32)n1-c1cccc(C(F)(F)F)c1	115
COC(=O)C1=C(C(=O)OC)SC(=C2C(=S)C(C)(C)N(C(=O)C3CC3)c3ccc(C)cc32)S1	108
CC1CCCCN1S(=O)(=O)c1ccc2c(c1)C(=O)Nc1cc(Cl)ccc1O2 (centres undefined)	112
Cc1nn(-c2ccc3nnc(C)n3n2)c2c1C(c1ccc(F)c(Br)c1)CC(=O)N2 (centres undefined)	103
O=C(Cn1nc2c3sc(N4CCCCC4)nc3ncn2c1=O)Nc1ccc(F)c(Cl)c1	104
CCC(C)NC(=O)CN(C)S(=O)(=O)c1cc2c(cc1Cl)NC(=O)CO2 (centres undefined)	105
CCOC(=O)CC(=O)CSc1nc2sc(C(=O)OCC)c(C)c2c(=O)n1Cc1ccco1	121
Cc1ccc(C)c(Sc2cc(N3CCC(C(=O)NCCCOC(C)C)CC3)ncn2)c1	101
O=C(CCc1nc(CSc2nc3ccc(Cl)cc3[nH]2)no1)Nc1cc(F)cc(F)c1	104
Remaining list, next part.
SMILES	GIV Gai3 FP
Cc1nn2c(S(=O)(=O)NCc3cccs3)c(C)nc2s1	98
CC(C)(C)C1CC=C2C(C#N)=C(N)C(C#N)(C#N)C(c3cccc(Cl)c3)C2C1 (centres undefined)	108
COc1cc(OC)cc(-c2noc(-c3nn(-c4ccc(Cl)cc4)ccc3=O)n2)c1	98
NC(=O)CSc1nnc2c(n1)[nH]c1ccccc12	112
COc1ccc(/C=C2\CCC/C(=C\c3ccc(N(C)C)cc3)C2=O)cc1	106
CCOc1cc(C(=O)Nc2ccc(S(=O)(=O)N3CCCCC3c3cccnc3)cc2)cc(OCC)c1OCC (centres undefined)	108
Cc1cc(S(=O)(=O)N2CCC(c3noc(-c4ccc(F)cc4)n3)CC2)ccc1F	99
Cc1csc(-c2cc(S(=O)(=O)NC3CCCCC3)cn2CC(=O)N2CCCCC2)n1	105
O=C(NC1CCCC1)c1nnc(-c2ccc(S(=O)(=O)N3CCOCC3)cc2)o1	102
O=C1Nc2ccccc2Oc2cc(Cl)c(S(=O)(=O)N3CCSCC3)cc21	109
Cc1ccc(Nc2nc(NCc3ccco3)c3ccccc3n2)cc1	99
COc1ccc(C2CC(C(F)(F)F)n3ncc(C(=O)Nc4cc5c(cc4C(C)O)OCO5)c3N2)cc1OC (centres undefined)	113
Cc1cc(C2CCCN2C(=O)c2c(C)noc2C)on1 (centres undefined)	101
CCOC(=O)C1=C(C)NC2=C(C(=O)C(C(=O)OCC)C(c3ccc(OC)cc3)C2)C1c1ccc(Br)cc1 (centres undefined)	99
CCc1nc(CN2C(=O)COc3ccc(S(=O)(=O)NC4CC4)cc32)no1	109
CCN1C2=C(C(=O)CC(C)(C)C2)C(c2ccccc2O)C2=C1CC(C)(C)CC2=O	101
O=C(Nc1ccc(Oc2ccc(Cl)c3ccccc23)c(Cl)c1)c1cc(I)cc(I)c1O	109
O=C(Cc1ccc(F)cc1)N1CCCN(C(=O)Nc2ccc(S(=O)(=O)N3CCOCC3)s2)CC1	102
COC(=O)c1cc(NC(=O)c2cc3nc(-c4ccc5c(c4)OCO5)cc(C(F)(F)F)n3n2)cc(C(=O)OC)c1	112
CC1CCCN(CC2CCN(S(=O)(=O)CCc3ccccc3)CC2)C1 (centres undefined)	102
O=C(NCc1ccccn1)C1CCN(c2ncnc3c2oc2ccccc23)CC1	106
O=C(NCC1CCCO1)c1cn(-c2cc(N3CCSCC3)ncn2)cn1 (centres undefined)	106

Entries from the list above that contain a thiophene ring, fused or not (eleven):
SMILES	GIV Gai3 FP
O=C(NC1CCCC1)c1cc2cn(C3CCCC3)cc2s1	121
Cc1ccc(CNS(=O)(=O)c2cc(-c3nc(C(C)C)cs3)cs2)cc1	98
CC1(C)Cc2c(sc3c2c(=O)n(-c2ccccc2)c2nncn32)CO1	110
Cc1ccsc1/C=N/NC(=O)c1nnn(-c2nonc2N)c1-c1ccccc1	98
CC(C)Cn1c(=O)c2sccc2n2c(=O)n(CC(=O)NC(C)C)nc12	96
Cc1ccccc1NC(=O)CSc1nc(N)c(C#N)c(-c2cccs2)c1C#N	106
Cc1nn(-c2ccc(F)cc2)c2sc(C(=O)Nc3ccc(F)cc3)cc12	104
COc1cc(OC)c(NC(=O)c2sc3ncnc(N4CCOCC4)c3c2C)cc1Cl	104
CCOC(=O)CC(=O)CSc1nc2sc(C(=O)OCC)c(C)c2c(=O)n1Cc1ccco1	121
Cc1nn2c(S(=O)(=O)NCc3cccs3)c(C)nc2s1	98
O=C(Cc1ccc(F)cc1)N1CCCN(C(=O)Nc2ccc(S(=O)(=O)N3CCOCC3)s2)CC1	102

Bioassay records deposited in PubChem BioAssay by ICCB-Longwood Screening Facility, Harvard Medical School.
